TRPML1 ag: activates the human TRPML1 channel | TRPML1-expressing cells, Ca2+ dye fluorescence, FDSS; host cell line not named in the record; reference of the full effect not given here | activation, % (concentration not given with the values) | hit rate 0.12% among 410,000; in the data active = activation above about 50%; inconclusive = about 30% to 50%; inactive = below about 30%; also: 0% is about no effect; the text of the record puts the active cut at 80%
Target sequence (Q9GZU1 whole entry, looked up): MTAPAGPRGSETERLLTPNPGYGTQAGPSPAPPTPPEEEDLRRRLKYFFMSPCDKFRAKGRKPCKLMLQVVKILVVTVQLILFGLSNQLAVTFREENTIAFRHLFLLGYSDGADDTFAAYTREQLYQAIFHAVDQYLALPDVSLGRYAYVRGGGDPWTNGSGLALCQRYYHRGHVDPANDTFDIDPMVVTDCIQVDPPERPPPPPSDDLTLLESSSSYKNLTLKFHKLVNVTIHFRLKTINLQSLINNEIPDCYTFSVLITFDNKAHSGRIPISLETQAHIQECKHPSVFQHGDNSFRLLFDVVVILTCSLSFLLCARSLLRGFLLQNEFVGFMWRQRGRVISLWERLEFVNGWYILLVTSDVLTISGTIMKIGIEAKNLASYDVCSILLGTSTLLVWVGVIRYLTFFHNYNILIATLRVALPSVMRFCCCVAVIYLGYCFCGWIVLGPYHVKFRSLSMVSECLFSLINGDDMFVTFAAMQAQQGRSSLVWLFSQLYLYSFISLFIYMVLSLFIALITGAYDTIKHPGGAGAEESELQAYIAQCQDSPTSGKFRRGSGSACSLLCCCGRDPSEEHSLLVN
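Tetracycline-induced TRPML1-DL cells are seeded and incubated overnight before loading with a no-wash Ca2+ dye and quencher. Agonist activity is taken from the 110 s fluorescence read following compound pin-transfer on an FDSS, before EC80 54-4 challenge.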
TRPML1 blocker: blocks the human TRPML1 channel; Q9GZU1; TRPML1-inducible cells, Ca2+ dye fluorescence, FDSS; hits give low values; inhibition of EC80 agonist-evoked calcium signal; activity change, negative = inhibition, % (concentration not given with the values); hit rate 0.02% among 390,000; in the data active means activity change below about -50%; inconclusive means about -30% to -50%; inactive means above about -30%;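 also: stimulus is agonist 54-4 at its EC80 concentration; % is scaled to controls: 0 for no effect and ±100 for the full control effect; compound concentration not given in the record; the text of the record puts the active cut at -80%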
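Tet-induced TRPML1-DL cells loaded with Ca8 no-wash calcium dye were read kinetically on FDSS. Compound addition was followed by EC80 agonist 54-4 (4 uM final); inhibition was read over 110 s.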
Numbers without * were called inactive. These rows are one share of the data, so the mix of outcomes need not match the whole.

SMILES	TRPML1 ag	TRPML1 blocker
Cc1ccc(N2CCN(C(=O)c3c(C)oc4ncnc(N5CCOCC5)c34)CC2)c(C)c1	8.1	10
O=C(CCOc1ccccc1)N(Cc1cccnc1)c1nc2c(F)cc(F)cc2s1	4.5	6
CN(C(=O)NCc1noc2ccccc12)c1cccc(Cl)c1	3.3	49
O=C(Nc1cc2ccc(O)cc2oc1=O)c1ccccc1	2.6	-16
CCOC(=O)c1cc(OC(=O)c2ccc(Cl)cc2)n(-c2ccccc2)n1	0.6	-15
CCOC(=O)c1ccc(Nc2nc3ccccc3n3c(C)nnc23)cc1	-0.3	-2
Cc1cc(C)c(NC(=O)Cn2c(=O)n(CCCCC(=O)NCc3ccccc3Cl)c(=O)c3ccccc32)c(C)c1	-0.7	-10
CCC(=O)Nc1ccccc1-c1nc2ccccc2n(C(C)C(=O)Nc2cccc(Cl)c2C)c1=O (stereo not given)	4.7	6
CCC1CCCCN1C(=O)c1nn(-c2ccc(OC)cc2)c(=O)c2c1c1ccccc1n2C (stereo not given)	2.1	-3
Cc1ccc(CNC(=O)c2ccc(CSCc3cccc(C)c3)o2)cc1	1.4	-20
Cc1ncc(CO)c2c1Oc1nc(-c3ccccc3Cl)nc(SCc3ccccc3F)c1C2	0.5	-3
CCOc1ccc(CNC(=O)C2CCN(S(=O)(=O)c3cn(C)cn3)CC2)cc1OC	0.2	12
CCOC(=O)COc1ccc(C)cc1C(=O)c1ccn2nc(-c3ccc(Cl)cc3)cc2n1	0.1	-3
Cc1cccc(N2CCN(S(=O)(=O)c3ccc4oc(=O)c5ncn(C)c5c4c3)CC2C)c1 (stereo not given)	-0.6	-4
CCOC(=O)c1nnc2c(-c3ccc(OC)cc3)c(C)nn2c1N	2.0	-3
Cc1ccc(C)c(N2CCN(C(=O)c3cc(C)nc4c3c(C)nn4-c3cccc(F)c3)CC2)c1	-1.0	7
CCOC(=O)c1c(-c2ccccc2)oc2cc(Br)c(OCc3ccccc3)cc12	0.3	35
O=C(NC1CC(=O)N(c2ccc(F)cc2)C1)c1ccco1 (stereo not given)	-0.3	2
Cn1c2ccccc2c2cnn(CC(=O)Nc3ccccc3F)c(=O)c21	-0.1	-4
Cc1cccc(-c2nc(CSCC(=O)N3CCN(c4ccccc4)CC3)c(C)o2)c1	2.5	15
CCC(=O)Nc1cccc(-c2nc3cc(C)ccc3o2)c1	1.9	21
Cc1cc(C)c2c(n1)nn1c(C)c(CCC(=O)NCc3ccccc3Cl)c(C)nc21	0.9	11
Cc1nc2nc(SCC(=O)NC3CCC(C)CC3)nn2c(C)c1Cc1ccccc1Cl (stereo not given)	0.0	5
COc1ccc(-n2nc3c(N4CCC(C(=O)NCc5cccc(F)c5)CC4)nnc(C)c3c2C)cc1	2.2	-12
O=C(NCCc1ccccc1Cl)c1ccc2c(c1)nc1n2CCOC1	-0.3	-12
O=c1c2cn[nH]c2nc(SCc2cccc(Br)c2)n1-c1ccc(Cl)cc1	3.7	-13
CCOc1ccc(C2=NC(c3cccs3)=Nc3ccc(C(C)C)cc3N2)cc1	-0.6	1
COc1ccc(N2CCN(S(=O)(=O)c3ccc(-c4cc(C(F)(F)F)on4)s3)CC2)cc1	0.1	-6
CCCN1Cc2cccc(C(=O)Nc3ccc(C(C)=O)cc3)c2C1=O	1.6	-10
COc1cc(NC(=O)C(CC(C)C)NS(=O)(=O)c2ccc3c(c2)CCN3C(C)=O)cc(OC)c1 (stereo not given)	-0.7	-5

For convenience, part of the list above:
SMILES	TRPML1 ag	TRPML1 blocker
CCC1CCCCN1C(=O)c1nn(-c2ccc(OC)cc2)c(=O)c2c1c1ccccc1n2C (stereo not given)	2.1	-3
Cc1ccc(CNC(=O)c2ccc(CSCc3cccc(C)c3)o2)cc1	1.4	-20
Cc1ncc(CO)c2c1Oc1nc(-c3ccccc3Cl)nc(SCc3ccccc3F)c1C2	0.5	-3
CCOc1ccc(CNC(=O)C2CCN(S(=O)(=O)c3cn(C)cn3)CC2)cc1OC	0.2	12
CCOC(=O)COc1ccc(C)cc1C(=O)c1ccn2nc(-c3ccc(Cl)cc3)cc2n1	0.1	-3
Cc1cccc(N2CCN(S(=O)(=O)c3ccc4oc(=O)c5ncn(C)c5c4c3)CC2C)c1 (stereo not given)	-0.6	-4
CCOC(=O)c1nnc2c(-c3ccc(OC)cc3)c(C)nn2c1N	2.0	-3
Cc1ccc(C)c(N2CCN(C(=O)c3cc(C)nc4c3c(C)nn4-c3cccc(F)c3)CC2)c1	-1.0	7
CCOC(=O)c1c(-c2ccccc2)oc2cc(Br)c(OCc3ccccc3)cc12	0.3	35
O=C(NC1CC(=O)N(c2ccc(F)cc2)C1)c1ccco1 (stereo not given)	-0.3	2
Cn1c2ccccc2c2cnn(CC(=O)Nc3ccccc3F)c(=O)c21	-0.1	-4
Cc1cccc(-c2nc(CSCC(=O)N3CCN(c4ccccc4)CC3)c(C)o2)c1	2.5	15
CCC(=O)Nc1cccc(-c2nc3cc(C)ccc3o2)c1	1.9	21
Cc1cc(C)c2c(n1)nn1c(C)c(CCC(=O)NCc3ccccc3Cl)c(C)nc21	0.9	11
Cc1nc2nc(SCC(=O)NC3CCC(C)CC3)nn2c(C)c1Cc1ccccc1Cl (stereo not given)	0.0	5
COc1ccc(-n2nc3c(N4CCC(C(=O)NCc5cccc(F)c5)CC4)nnc(C)c3c2C)cc1	2.2	-12
O=C(NCCc1ccccc1Cl)c1ccc2c(c1)nc1n2CCOC1	-0.3	-12
O=c1c2cn[nH]c2nc(SCc2cccc(Br)c2)n1-c1ccc(Cl)cc1	3.7	-13
CCOc1ccc(C2=NC(c3cccs3)=Nc3ccc(C(C)C)cc3N2)cc1	-0.6	1
COc1ccc(N2CCN(S(=O)(=O)c3ccc(-c4cc(C(F)(F)F)on4)s3)CC2)cc1	0.1	-6
CCCN1Cc2cccc(C(=O)Nc3ccc(C(C)=O)cc3)c2C1=O	1.6	-10
COc1cc(NC(=O)C(CC(C)C)NS(=O)(=O)c2ccc3c(c2)CCN3C(C)=O)cc(OC)c1 (stereo not given)	-0.7	-5

More structures follow.
SMILES	TRPML1 ag	TRPML1 blocker
COCCNC(=O)C(=O)NCC(c1ccc2c(c1)OCO2)N1CCOCC1 (stereo not given)	1.2	-15
Cc1cc(C)n(-c2nc3cc(Cl)ccc3nc2N2CCN(c3cccc(C)c3C)CC2)n1	-0.2	-4
CCc1ccc(-n2c(SCc3nc(-c4cc(OC)ccc4OC)no3)nnc2-c2ccccc2)cc1	1.6	19
COc1ccccc1/C=C/c1nc2ccccc2n1C(C)C	2.1	22
CC(=O)NC(C)c1nc2ccccc2n1Cc1ccccc1Cl (stereo not given)	3.1	27
COc1ccc2oc(=O)c(-c3cn4c(n3)sc3cc(OC)ccc34)cc2c1	1.0	10
O=C(Cc1ccccc1)N(Cc1cccnc1)c1nc2ccc(Cl)cc2s1	1.1	27
COc1cc(C2CC(=O)Nc3c2c(=O)n(C)c(=O)n3C)cc(OC)c1OC (stereo not given)	0.5	4
CCOc1ccc(/C=C/c2nc(C#N)c(N3CCN(CC)CC3)o2)cc1	-0.4	1
CCOc1ccccc1Nc1sc(C(=O)c2ccccc2)c(N)c1S(=O)(=O)c1ccc(C)cc1	9.6	-4
Cc1cn(C)c(CC(=O)NCc2ccc(F)cc2)c1C(=O)O	0.9	-10
COc1ccc(C2C(=O)N(C3CCCCCC3)CC(=O)N2Cc2ccccc2)cc1 (stereo not given)	-0.1	-13
Cn1cnc2c(=O)oc3ccc(S(=O)(=O)N4CCN(c5cccc(C(F)(F)F)c5)CC4)cc3c21	0.5	-16
Cc1ccc(Sc2ccc(N3CCCC(C(=O)Nc4ccc(F)cc4)C3)nn2)cc1 (stereo not given)	-0.1	0
COc1cccc(N2CCN(C(=O)c3cnc4c(-c5ccccc5)c(C)nn4c3C)CC2)c1	1.0	33
CC1=C(C(=O)NCc2ccccc2C)C2(CCCCCC2)OC1=O	1.5	30
Cc1ccc2c(c1)c1c(c(=O)n(-c3ccccc3)c(=O)n1CC(=O)c1ccc(F)cc1)n2C	0.1	23
Cc1ccc(Cn2c(C(=O)O)c(CNCCc3ccco3)c3ccc(C)cc32)cc1	-0.6	21
Cc1noc(/C=C/c2ccco2)c1S(=O)(=O)N1CCC(C(=O)Nc2ccc(F)c(Cl)c2)CC1	3.8	-8
COc1ccc(CCC(=O)NCc2nc3cccnc3n2Cc2ccc(F)cc2)cc1	-0.2	-7
CCOC(=O)c1ccc(NC(=O)CC2C(=O)N(c3ccc(C)cc3)C(=O)N2C2CCCCC2)cc1 (stereo not given)	-0.3	4
COc1ccc(-n2cc(C(=O)Nc3ccccc3C#N)c3ccccc3c2=O)cc1	-0.3	3
O=C(NCc1ccco1)c1ccc(Cn2c(SCc3ccccc3)nc3cccnc32)cc1	-0.3	0
CCC(=O)N1CCc2cc(S(=O)(=O)CCC(=O)Nc3cc(Cl)ccc3OC)ccc21	-0.7	2
Cn1nnnc1SCCCNCc1ccc(-c2ccc(Br)cc2)o1	-0.6	21
Cc1cccc(Cn2c(=O)n(Cc3ccccc3)c(=O)c3oc4ccccc4c32)c1	0.5	8
Cc1nnc(N2CCC(C(=O)NCc3ccc(F)cc3)CC2)c2nn(-c3ccc(Cl)cc3)c(C)c12	2.2	22
Cc1ccccc1Cn1c(=O)n(CC2CCC(C(=O)N3CCC(C)CC3)CC2)c(=O)c2sccc21 (stereo not given)	1.6	12
Cc1cccc(Cn2c(-c3cccs3)nc3ccccc32)c1	5.5	57
COc1ccc(NC(=O)C2CCN(c3ccc(Sc4ccc(C)cc4)nn3)CC2)c(OC)c1	-0.8	-5
N#C/C(=C\c1cc(Br)c(O)c(Br)c1)c1nc2ccccc2c(=O)[nH]1	1.9	8
O=C(c1cc2c(Cl)nc3ccccc3c2s1)N1CCCCC1	-1.2	-21
CN1CCN(C(=O)c2ccc3c(c2)N(Cc2ccc(C(F)(F)F)cc2)C(=O)c2ccccc2S3)CC1	5.8	-1
CCCOC(=O)N1CCN(/[N+]([O-])=N/Oc2ccc([N+](=O)[O-])cc2[N+](=O)[O-])CC1	0.9	45
COCCN1CCN(Cc2ccc(C(=O)NC(C)C)cc2)C(=O)C1=O	0.5	-13
Cc1ccc(S(=O)(=O)c2nnn3c2nc(N2CCCC2)c2sccc23)cc1C	0.1	-18
CCN(C(=O)Cn1nc(Cc2ccncc2)c2ccccc2c1=O)c1ccc(OC)cc1	-0.3	19
CC1CCc2nn(CC(=O)Nc3ccccc3Cl)cc2C1 (stereo not given)	-0.9	5
COc1ccc(-c2oc3ncn4nc(-c5ccc(Cl)cc5)nc4c3c2-c2ccc(OC)cc2)cc1	0.2	3
CSc1cccc(-c2nnc(NC(=O)c3ccc4c(c3)OCCO4)o2)c1	-0.9	-7
O=C(COc1ccccc1F)Nc1ccccc1OCc1cc(=O)n2ccccc2n1	1.1	17
Cc1c(NC(=O)c2cccs2)cccc1-c1nc2cc(Cl)ccc2o1	1.6	4
CCC(=O)Oc1cc(C(C)(C)C)cc2cc(-c3nc(-c4ccc(OC)cc4OC)no3)c(=O)oc12	1.1	-2
COc1ccc(CN2CCc3c(c(=O)n4ncc(C(=O)N5CCN(c6ccccc6F)CC5)c4n3C)C2)cc1	1.8	27
O=C(Cn1cc(SCc2ccccc2F)c2ccccc21)N1CCCC1	0.7	-3
Cc1ccc(Nc2nc3c(S(=O)(=O)c4ccccc4)nnn3c3ccc(Cl)cc23)c(C)c1	-0.4	2
COc1ccc(/C=C(/C#N)c2nc(-c3ccc(Br)cc3)cs2)cc1	0.9	47
COC(=O)c1c(NC(=O)CCCOc2cccc(C)c2)sc2c1CCC2	0.3	-12
O=C(CN1CCCN(S(=O)(=O)c2ccc(Br)cc2)CC1)Nc1cccc(C(F)(F)F)c1	0.3	48
Cc1oc2ccc(O)c(CN3CCC(C)CC3)c2c1C(=O)Nc1ccccc1	-0.9	12
CCOCCCNC(=O)CN1C(=O)c2cccnc2Sc2ccccc21	0.7	-13
Cc1cccc(-c2nnn3c2nc(NCc2ccc4c(c2)OCO4)c2ccccc23)c1	-1.5	-13
CCCCN1CC(c2nc3ccccc3n2CCCCOc2cc(C)cc(C)c2)CC1=O (stereo not given)	0.4	45
COc1ccc(OC)c(CNC(=O)c2cc3c(Cl)nc4ccccc4c3s2)c1	0.7	4
COc1ccc(NC(=O)Cn2c(=O)n(Cc3ccco3)c(=O)c3sc4ccccc4c32)cc1OC	-0.1	-10
CC(C)Cn1c(=O)c2ccccc2n2c(CCC(=O)NCc3ccccc3Cl)nnc12	0.0	11
Cc1ccccc1-c1nnc(CN2CCN(c3ccccn3)CC2)o1	0.2	5
CCc1ccc(C2=NN(CCC(=O)NCCc3ccccc3)C(=O)CC2)cc1	1.4	1

Screening data (PubChem BioAssay)
